From PubChem BioAssay
GLA inh pH 4.5: alpha-galactosidase A (human) inhibition, pH 4.5 | AID 1467 | P06280 | 230,000 tested, under 10 active | purified enzyme, 4-MU-alpha-Gal fluorescence, pH 4.5 | activity change, negative = inhibition, % at 105 µM; inconclusive = small, poorly fitted or top-dose-only inhibition, or a rising curve; inactive = flat fitted curve, though single readings scatter; no compound was filed as active;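 also: 0% = full activity with enzyme and -100% = basal without enzyme; dose as in the result columns while the protocol names 77 µM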
Rango complex inh: inhibitors of Rango-importin beta complex formation; AID 540263; 0.031% of 340,000 active; Rango CFP/YFP FRET sensor + importin beta, 45 min; Potency, µM (doses to about 92.2 µM), for inactives: top-dose inhibition of complex formation; active = rising FRET ratio curve, often small or poorly fitted; inconclusive = mostly compound fluorescence or quenching in the first reads; inactive = flat curves in all reads;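 also: potency is read from the fitted curve at half-maximal effect; 0% = DMSO wells and 100% = buffer wells lacking importin beta; nearly all actives have a fitted effect of over 15% in size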
Target sequence (Q14974 whole entry, looked up): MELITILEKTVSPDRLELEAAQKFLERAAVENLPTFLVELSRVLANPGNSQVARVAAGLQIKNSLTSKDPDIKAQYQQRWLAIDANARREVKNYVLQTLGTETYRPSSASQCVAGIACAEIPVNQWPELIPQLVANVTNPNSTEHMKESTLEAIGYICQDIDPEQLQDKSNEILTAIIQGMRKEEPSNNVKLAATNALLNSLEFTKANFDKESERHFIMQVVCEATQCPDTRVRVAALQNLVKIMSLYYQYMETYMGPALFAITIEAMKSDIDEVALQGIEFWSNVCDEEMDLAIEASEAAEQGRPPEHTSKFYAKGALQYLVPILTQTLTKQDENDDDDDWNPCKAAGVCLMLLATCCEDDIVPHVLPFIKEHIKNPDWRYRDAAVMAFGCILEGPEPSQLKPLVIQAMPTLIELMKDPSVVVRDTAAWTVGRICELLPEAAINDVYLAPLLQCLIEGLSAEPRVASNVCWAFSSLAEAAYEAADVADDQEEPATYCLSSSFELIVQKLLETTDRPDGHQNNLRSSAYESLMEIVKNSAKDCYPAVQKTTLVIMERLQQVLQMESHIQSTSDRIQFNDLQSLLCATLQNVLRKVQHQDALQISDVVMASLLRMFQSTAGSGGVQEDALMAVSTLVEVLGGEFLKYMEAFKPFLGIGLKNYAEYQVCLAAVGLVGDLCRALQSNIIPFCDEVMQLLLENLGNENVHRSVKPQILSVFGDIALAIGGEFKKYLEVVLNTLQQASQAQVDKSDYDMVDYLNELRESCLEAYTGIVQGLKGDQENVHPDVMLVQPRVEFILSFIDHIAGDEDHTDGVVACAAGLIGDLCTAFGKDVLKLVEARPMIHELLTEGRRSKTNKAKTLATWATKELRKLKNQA
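Inhibition scored from the CFP 486 nm/YFP 530 nm FRET ratio 45 min after adding 0.125 microM importin beta to 50 nM Rango biosensor preincubated 5 min with compound (room temperature, PBS with DTT, Tween-20, BSA). No-importin wells as positive control.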
miR-21 FLuc: miR-21 reporter, rising signal. HeLa miR-21 FLuc reporter, luciferase, 48 h. Potency, µM (doses to about 38.3 µM), for inactives: at the top dose reporter change, positive = more light. 340,000 tested, under 10 active; active = well fitted rising curve with a large enough effect; inconclusive = small, poorly fitted or top-dose-only effect; inactive = no such curve, though single readings can be large or run the other way;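 also: % of control where 0% means no effect; miR-21 action dims this reporter so a rising signal means less miR-21 action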
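Compounds were titrated across several concentrations (up to approximately 40 uM) and incubated 48 hours with HeLa miR-21-FLuc reporter cells (miR-21 target sequence downstream of FLuc, endogenous miR-21). Readout was firefly luciferase luminescence after lytic detection reagent.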
Rango release inh: prevents RanGTP from dissociating the Rango-importin beta complex. Potency, µM (highest dose often 46.1 µM), for inactives: at the highest dose activity change, negative = inhibition. 0.071% of 340,000 active. Biochemical FRET Rango-importin beta, RanGTP-induced dissociation. O95149+P62826; active means falling FRET ratio curve, often poorly fitted, with flat reads before Ran was added; inconclusive means other falling curves, or compound fluorescence or quenching; inactive means flat or rising ratio curve;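 also: potency is read from the fitted curve at half-maximal effect; % of control where 0% means no effect; nearly all actives have a fitted effect of over 45% in size; -100% = wells without RanGTP and RCC1; the record marks most hits as doubtful in a second field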
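Rango/importin beta premix (0.1/0.25 uM final), PBS + 1 mM DTT + 0.02% Tween-20 + 0.1% BSA; cpd 5 min RT; FRET pre-read; + RanGTP-RCC1 (0.6 uM Ran, 2 mM GTP, 0.2 uM RCC1); 45 min RT; FRET post-read, ex 430, em 486/530 nm.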
* = called active by the depositor; ? = inconclusive; . = not tested or not shown; & = joins results of further samples; [ ] = remark or other dose.

canonical_smiles | GLA inh pH 4.5 | Rango complex inh | miR-21 FLuc | Rango release inh
Cc1ccccc1NC(=O)COC(=O)c1cccnc1 | -0.1 | 3.8% | 2.8% | 1.4%
COC(=O)c1ccccc1NC(=O)CN1C(=O)NC2(CCCCCCC2)C1=O | . | 5.3% | . | -15.6%
Cc1ccc(-n2nc(C(=O)N3CCOCC3)cc2-c2ccc(Cl)cc2)cc1 | -3.0 | 0.9% | -6.5% | -9.6%
COc1ccc(-c2nc(SC(CC(=O)NCCN3CCOCC3)c3cccs3)n[nH]2)cc1 (stereo not drawn) | 6.8 | 0.0% | 7.2% | 9.4%
Cc1cc(C(C)(C)C)ccc1OCC(=O)N/N=C\c1c(C)n(C)n(-c2ccccc2)c1=O | . | -1.4% | 1.5% | -12.7%
CC(O)c1ccc(-n2cnnn2)cc1 (stereo not drawn) | 8.9 | ? | -7.9% | 11.2%
Cc1coc2c1c(C)cc1oc(=O)c(Cc3ccccc3)c(C)c12 | -5.5 | -0.7% | -1.1% | -2.5%
CC1(C)S[C@@H]2[C@H](NC(=O)[C@H](N)c3ccccc3)C(=O)N2[C@H]1C(=O)O | -4.0 | 0.3%&-1.9% | -6.3%&-7.5% | -12.2%&-2.7%
COCCn1c(SCC(=O)Nc2cccc(C(=O)OC)c2)nc2ccccc2c1=O | 5.1 | 0.1% | -1.2% | 4.6%
CCOCCCNC(=O)NC12CC3CC(CC(C3)C1)C2 | 0.9 | 4.3% | -23.7% | 0.2%
CC(C)c1cc(NCc2ccccn2)n2c(nc3ccccc32)c1C#N | 20.7 | ? | 3.5% | -8.3%
COc1ccc2nc(NC3=NC(C(=O)Nc4ccc(C)cc4)CC(=O)N3)nc(C)c2c1 (stereo not drawn) | 0.0 | . | -19.6% | .
CCSC1=C(C#N)C2(CCCCC2)C(C#N)=C(N)N1 | -10.2 | 5.7% | -9.7% | 4.7%
Cc1nnc(NC(=O)c2ccc(F)c(S(=O)(=O)N3CCOCC3)c2)s1 | . | -9.5% | . | -6.3%
c1ccc2nc(-c3ccc(N4CCOCC4)cc3)ccc2c1 | 3.1 | ? | -34.5% | -23.0%
CN(C)c1ccnc2sc(C(=O)c3ccccc3)c(N)c12 | 6.1 | ? | -51.8% | ?
COC(=O)CNC(=O)c1ccc(C)s1 | 3.8 | 3.0% | -0.2% | -9.5%
CC(C)c1ccc(NC(=O)CN2C(=O)COc3ccc(S(=O)(=O)N4CCOCC4)cc32)cc1 | . | -2.0% | -5.8%&-1.3% | 16.1%
Cc1ccc(CNC(=O)CCC2CCCN(Cc3ccc4cccc(F)c4n3)C2)o1 (stereo not drawn) | 1.9 | -1.4% | -3.1% | 0.0%
CC(C)=C1C2CCC1C1C(=O)N(c3ccc4c(c3)OCO4)C(=O)C21 (stereo not drawn) | 0.4 | -0.6% | -0.5% | -11.0%
Cn1nc([N+](=O)[O-])c2c(-c3nc4ccccc4s3)c(N)n(C3CCCCC3)c2c1=O | 7.7 | -3.0% | -5.5% | -5.7%
COc1cc(OC)cc(C(=O)N2CCN(C3CCC(C)CC3)CC2)c1 (stereo not drawn) | . | -2.8% | . | -7.2%
Cc1ccc([N+](=O)[O-])cc1-c1ccc(/C=N/NC(=O)CN2CCOCC2)o1 | -2.5 | 0.3% | -7.8% | -3.2%
O=C(CCc1nc2ccccc2[nH]c1=O)OCC(=O)c1cccc2ccccc12 | -6.2 | . | -1.6% | .
CN1CCN(C(=O)CCC(=O)c2ccc(F)cc2)CC1 | 0.4 | 0.7% | -15.2% | 0.2%
COc1cc(C(=O)N2CCN(C(=O)C(Cc3cc(C)ccc3C)NC(C)=O)CC2)cc(OC)c1OC (stereo not drawn) | 9.2 | 0.0% | -3.4% | 1.0%
CC(C)CNC(=S)NNC(=O)CC(C)O (stereo not drawn) | 5.1 | 3.0% | 1.1% | 16.8%
O=C(COC(=O)c1cc(S(=O)(=O)N2CCOCC2)ccc1F)NC1CC1 | . | -0.6% | . | -4.4%
COc1nc(N2CCOCC2)nc(-n2cccc2)n1 | 8.3 | 3.1% | -11.0% | 6.5%
CN1CCN(C(CNC(=O)C(=O)NC2CCCC2)c2ccc(F)cc2)CC1 (stereo not drawn) | . | -2.1% | . | ?
O=C(c1cc(=O)[nH]c2ccccc12)N1CCc2ccccc2C1 | -3.1 | 2.0% | -7.4% | -2.2%
CC(C)C[C@@H](CSc1ccc(Br)cc1)N1CCN(CC(C)C)CCC1=O | -11.1 | 0.6% | -38.4% | 0.1%
Nc1ncnc2c1ncn2[C@@H]1O[C@H](CNCC#Cc2ccccc2)[C@@H](O)[C@H]1O | . | 5.2% | . | -0.8%
NC(=O)CC(NC(=O)c1ccccc1)c1ccc(NCCN2CCOCC2)c([N+](=O)[O-])c1 (stereo not drawn) | . | 1.0% | -1.0% | 6.7%
C[C@H](CO)N1C[C@H](C)[C@H](CN(C)CC2CCCCC2)Oc2ccc(NS(=O)(=O)c3ccc(F)cc3)cc2CC1=O | . | 3.7% | . | 4.5%
COc1ccc(CCNC(=O)c2ccc(OCC(=O)N3CCOCC3)c(OC)c2)cc1 | . | -0.5% | . | 1.3%
CCc1nn2cc(C(=O)c3cc(C)ccc3O)cnc2c1-c1ccc(F)cc1 | -25.1 | 5.4% | -9.1% | -8.8%
NC(=O)CCN(C1CCCCC1)S(=O)(=O)c1cccc2nsnc12 | . | -0.3% | -6.3% | -4.4%
CCn1c(CCNC(=O)c2cccs2)nnc1SCC(=O)c1ccc(OC)cc1 | . | -1.5% | . | 10.1%
COc1ccc(Cl)cc1NC(=O)CN1C(=O)NC(C)(Cc2ccc(OC)c(OC)c2)C1=O (stereo not drawn) | . | 5.3% | . | -0.5%
CCN1CCN(C(=O)CCN2C(=O)COc3ccc(C)cc32)CC1 | 2.1 | 0.9% | 0.0% | -11.5%
CCOC(=O)/C=C1\NC(C)(C)Cc2cc(OC)c(OC)cc21 | . | 1.3% | -7.2% | -4.1%
CN(CC(=O)NCCc1ccc(S(N)(=O)=O)cc1)Cc1ccc(Cl)cc1Cl | . | 0.2% | 12.9% | -5.5%
O=C(CSc1nnc2ccccn12)NNC(=O)c1ccccc1F | . | 5.8% | . | -8.3%
O=C(COC(=O)CNC(=O)c1ccc(Cl)cc1Cl)NC1CCCCC1 | . | 5.7% | -4.1% | -13.1%
CC12CC(NC(=O)N1c1cccc(C(=O)N3CCN(c4ccccc4)CC3)c1)c1ccccc1O2 (stereo not drawn) | -4.7 | 2.4% | 2.6% | 13.8%
O=C(c1ccc(Cl)c([N+](=O)[O-])c1)N1CCN(S(=O)(=O)c2ccc(Cl)cc2)CC1 | . | 2.3% | . | 28.4%
COc1ccccc1NC(=O)c1cccc(N2C(=O)C3C4C=CC(C4)C3C2=O)c1 (stereo not drawn) | . | 2.1% | -2.5% | -3.6%
CCCCn1c(N)c(N(CC(C)C)C(=O)c2ccc(S(=O)(=O)N3CCC(C)CC3)cc2)c(=O)[nH]c1=O | . | 0.8% | . | -6.6%
CCCCOc1ccc(-c2cnc3ccccc3n2)cc1 | -0.2 | 7.6% | -75.2% | -4.0%
CCC(COC)Oc1cc(NCc2ccccc2)c2ncn(C(C)C)c2c1 (stereo not drawn) | . | ? | . | ?
Cc1cc(C)nc(NS(=O)(=O)c2ccc(Br)s2)c1 | -6.4 | -5.5% | -4.3% | -1.5%
COc1ccc(N(CCCN2C(=O)c3cccc4cccc(c34)C2=O)C(=O)c2cccc(OC)c2)cc1 | 1.1 | 0.0% | 17.6% | 3.1%
COc1ccc(C2=C(O)C(C)N(c3ccccc3)C2=N)cc1OC (stereo not drawn) | -0.6 | -0.4% | -0.6% | 7.2%
COc1ccc(CCCc2nnc(SCC(=O)Nc3nc(C)cs3)n2C)cc1 | 11.7 | 6.0% | 0.5% | -1.1%
COc1ccc(-c2ccc3ccccc3n2)cc1 | 4.6 | 1.4% | -30.8% | 6.2%
Cc1ccc(C)c(N2CCN(C(=S)Nc3ccc4nc(N5CCOCC5)cc(C)c4c3)CC2)c1 | 10.8 | 0.7% | -18.3% | -7.1%
Cc1cc(C)c2c(N)c(C(=O)N3CCN(c4ncccn4)CC3)sc2n1 | -2.5 | -2.9% | -34.7% | ?
CCCn1c(-c2ccc(OC)cc2)nc2nc3ccccc3nc21 | 20.6 | -5.8% | -9.2% | ?
COc1ccc(S(=O)(=O)N2Cc3ccccc3CC2C(=O)Nc2nccs2)cc1OC (stereo not drawn) | 2.3 | 1.2% | -33.5% | 1.6%

Next entries.
canonical_smiles | GLA inh pH 4.5 | Rango complex inh | miR-21 FLuc | Rango release inh
CCN(CC)CCCCNc1ncc2cc(-c3cc(OC)cc(OC)c3)c(NC(=O)NC(C)(C)C)nc2n1 | . | -5.5% | 19.3% | 6.2%
COc1ccc(-c2nnc(SCC(=O)NCC3CCCO3)n2C)cc1 (stereo not drawn) | -1.5 | -4.1% | -0.4% | 2.4%
CSc1ccccc1NC(=O)CN(C)C(=O)Cn1c(=O)oc2ccccc21 | . | 2.6% | . | -10.8%
CSc1ccc(CNc2nnnn2C)cc1 | 5.4 | 3.3% | -0.9% | 6.6%
Cc1ccc[n+](C2C(c3ccc([N+](=O)[O-])cc3)C(C#N)=C([S-])NC2(O)C2CC2)c1 (stereo not drawn) | 3.5[21.1 µM] | -4.9% | 1.7% | 1.1%
Cc1ccc(Oc2c(C(N)=O)cc([N+](=O)[O-])cc2[N+](=O)[O-])cc1 | 3.1 | -1.2% | ? | 12.2%
O=C(O)CCC(=O)OCC1CCCO1 (stereo not drawn) | 4.9 | -2.4% | -3.1% | 6.8%
O=C1CCCCCN1C(=O)c1cccc(C(=O)N2CCCCCC2=O)c1 | -0.6 | 4.1% | -1.6% | -2.9%

A portion of the results above, as a working copy:
canonical_smiles | GLA inh pH 4.5 | Rango complex inh | miR-21 FLuc | Rango release inh
COc1ccc(-c2ccc3ccccc3n2)cc1 | 4.6 | 1.4% | -30.8% | 6.2%
Cc1ccc(C)c(N2CCN(C(=S)Nc3ccc4nc(N5CCOCC5)cc(C)c4c3)CC2)c1 | 10.8 | 0.7% | -18.3% | -7.1%
Cc1cc(C)c2c(N)c(C(=O)N3CCN(c4ncccn4)CC3)sc2n1 | -2.5 | -2.9% | -34.7% | ?
CCCn1c(-c2ccc(OC)cc2)nc2nc3ccccc3nc21 | 20.6 | -5.8% | -9.2% | ?
COc1ccc(S(=O)(=O)N2Cc3ccccc3CC2C(=O)Nc2nccs2)cc1OC (stereo not drawn) | 2.3 | 1.2% | -33.5% | 1.6%
CCN(CC)CCCCNc1ncc2cc(-c3cc(OC)cc(OC)c3)c(NC(=O)NC(C)(C)C)nc2n1 | . | -5.5% | 19.3% | 6.2%
COc1ccc(-c2nnc(SCC(=O)NCC3CCCO3)n2C)cc1 (stereo not drawn) | -1.5 | -4.1% | -0.4% | 2.4%
CSc1ccccc1NC(=O)CN(C)C(=O)Cn1c(=O)oc2ccccc21 | . | 2.6% | . | -10.8%
CSc1ccc(CNc2nnnn2C)cc1 | 5.4 | 3.3% | -0.9% | 6.6%
Cc1ccc[n+](C2C(c3ccc([N+](=O)[O-])cc3)C(C#N)=C([S-])NC2(O)C2CC2)c1 (stereo not drawn) | 3.5[21.1 µM] | -4.9% | 1.7% | 1.1%
Cc1ccc(Oc2c(C(N)=O)cc([N+](=O)[O-])cc2[N+](=O)[O-])cc1 | 3.1 | -1.2% | ? | 12.2%
O=C(O)CCC(=O)OCC1CCCO1 (stereo not drawn) | 4.9 | -2.4% | -3.1% | 6.8%

An excerpt, so the mix of outcomes need not match the whole.
